VDR inh: blocks the human vitamin D receptor. 400,000 compounds, 0.93% hits. P11473. VDR-SRC2-3 peptide fluorescence polarization, 2 h. Potency, µM, for inactives: max response, negative = inhibition, hits mostly inhibitors; active = well fitted inhibition curve with a large enough effect; inconclusive = small, poorly fitted or top-dose-only effect, or another doubt; inactive = no such curve, though single readings can be large or run the other way; also: series mostly up to about 120 µM
Target sequence (P11473 whole entry, looked up): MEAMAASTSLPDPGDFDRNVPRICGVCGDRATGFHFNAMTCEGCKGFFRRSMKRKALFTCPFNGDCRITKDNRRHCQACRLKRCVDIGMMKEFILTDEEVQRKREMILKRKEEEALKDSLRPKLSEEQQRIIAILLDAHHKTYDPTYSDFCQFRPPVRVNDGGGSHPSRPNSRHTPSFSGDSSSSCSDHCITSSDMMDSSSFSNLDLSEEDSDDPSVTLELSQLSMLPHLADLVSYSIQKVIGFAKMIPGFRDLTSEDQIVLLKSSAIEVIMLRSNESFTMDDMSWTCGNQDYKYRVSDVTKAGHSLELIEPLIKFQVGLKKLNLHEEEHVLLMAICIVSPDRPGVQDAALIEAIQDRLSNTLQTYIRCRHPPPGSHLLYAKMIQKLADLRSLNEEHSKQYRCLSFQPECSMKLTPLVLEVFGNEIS
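VDR–SRC2-3 interaction, FP format. Cmpds 23 nl via pintool, brief spin, 2 h ambient incubation.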
* marks the source's active call; other numbers are inactive results; ? = inconclusive; & = joins results of further samples; [ ] = another dose, or the depositor's remark. % is scaled to controls: 0 for no effect and ±100 for the full control effect; potency is read from the fitted curve at half-maximal effect.

canonical_smiles	VDR inh
O=C1C(CCC(O)c2ccc(F)cc2)C(c2ccc(O)cc2)N1c1ccc(F)cc1 (centres undefined)	?
CCn1c(SCc2ccc(F)cc2)nnc1-c1nn(-c2ccccc2)ccc1=O	-7.5%
COc1ccccc1N1N=C(C(=O)c2ccccc2)C2C(=O)N(c3ccc(Br)cc3)C(=O)C21 (centres undefined)	21.5%
C#CCOc1ccc(/C=C2/C(=O)ON=C2C)cc1OCC	?
CN(C(=O)CSc1nc(-c2ccccc2)c(-c2ccccc2)o1)C1CCS(=O)(=O)C1 (centres undefined)	-1.7%
CCCCCC(=O)N1CCN(CCN=CC2=C(O)CC(c3ccc(OC)cc3)CC2=O)CC1 (centres undefined)	10.1%&-9.8%
O=C(O)CCCNC(=O)/C(=C\C=C\c1ccccc1)NC(=O)c1ccccc1Cl	8.5%
CN(C)CCCN(C(=O)c1ccc(S(=O)(=O)N2CCCCCC2)cc1)c1nc2ccc(Br)cc2s1	6.1%
S=C(NCc1ccccc1)N1CCN(C(=S)NCc2ccccc2)CC1	-16.1%
O=C(CN1CCN(S(=O)(=O)c2ccccc2)CC1)Nc1ccc([N+](=O)[O-])cc1	7.1%
COc1ccc(CCNC(=O)c2cc3cc(F)ccc3nc2C)cc1OC	-11.6%
O=C1Nc2ccc(Cl)cc2C(C#CC2CC2)(C(F)(F)F)O1 (centres undefined)	-19.7%&-15.2%
Cc1nnc(-c2cccc(Br)c2)c2cn(-c3ccc(Br)cc3)nc12	-5.3%
N#Cc1c(N)nc2c(c1N)CC(=O)N2c1ccccc1-c1ccccc1	12.4%
COc1ccc(NC(=O)c2cc(-c3ccc(OC)c(OC)c3)nc3ccccc23)c(OC)c1	2.9%
CN(Cc1ccccc1)Cc1nc2c([nH]1)c(=O)n(C)c(=O)n2C	14.8%
CC(C)(C)c1cc(C(=O)N/N=C/c2ccncc2)n[nH]1	-3.4%
CCn1ccc(C(=O)Nc2ncc(C)s2)n1	-10.1%
O=C(CN(C(=O)c1ccc(Cl)cc1)N1C(=O)C2C3C=CC(C3)C2C1=O)c1cccs1 (centres undefined)	15.4%
CCOc1ccc(OCC)c(NC(=O)c2nnn(CC(=O)Nc3ccc(C)cc3C)c2N)c1	?

Structures listed so far containing an NH in an aromatic ring, in the order listed:
canonical_smiles	VDR inh
CN(Cc1ccccc1)Cc1nc2c([nH]1)c(=O)n(C)c(=O)n2C	14.8%
CC(C)(C)c1cc(C(=O)N/N=C/c2ccncc2)n[nH]1	-3.4%

Of the compounds above, these contain an aryl thioether with sulfur outside any ring:
canonical_smiles	VDR inh
CCn1c(SCc2ccc(F)cc2)nnc1-c1nn(-c2ccccc2)ccc1=O	-7.5%
CN(C(=O)CSc1nc(-c2ccccc2)c(-c2ccccc2)o1)C1CCS(=O)(=O)C1 (centres undefined)	-1.7%

Next section
canonical_smiles	VDR inh
O=S(=O)(NC1CCCCC1N1CCCCC1)c1ccccc1 (centres undefined)	6.7%
N#C/C(=C/c1ccc(Cl)cc1Cl)c1nc2ccccc2c(=O)[nH]1	-25.9%
CC1(C)Cc2c(sc(NC(=O)C(C)(C)C)c2C#N)C(C)(C)N1	1.8%
Cn1c2ccccc2c2cc([N+](=O)[O-])ccc21	-9.7%
Cc1cc(C)cc(N(C(=O)c2nsc(Cl)c2Cl)C(C(=O)NC2CCCC2)c2ccc(O)cc2)c1 (centres undefined)	-23.1%
O=C(c1ccc([N+](=O)[O-])o1)N1CCN(c2nc3c(Cl)cccc3s2)CC1	-8.7%
CC(C)NC(=O)N1CCC(n2nccc2NC(=O)CCOc2ccccc2)CC1	117.7%[activator]
Cc1ccc(-c2csc(NCCc3nc4cc(Cl)c(Cl)cc4n3CCOCCO)n2)cc1	-13.7%
CN(C(=O)c1ccc(NC(=O)Cc2cccc(NC(=O)C3CCN(C(=O)c4ccccc4)CC3)c2)cc1)C1CC1	-3.3%
CCOC(=O)C1=C(COC(=O)CCOc2ccc(OC)cc2)NC(=O)NC1C (centres undefined)	14.6%
C/C(=N\NC(=O)c1ccc(CN2CCOCC2)cc1)c1cccc([N+](=O)[O-])c1	-2.0%
Cc1cc(C)nc(CCNC(=O)c2cc(COc3c(F)cccc3F)on2)n1	-1.4%
COc1ccc(NC(=S)NC(NC(=O)/C=C/c2ccccc2)C(Cl)(Cl)Cl)cc1 (centres undefined)	9.3%
Cc1c(CC(=O)NCC(C)C)c(=O)oc2cc3c(cc12)CCC(C)(C)O3	20.3%
Cc1ccc(C2CC(c3cccc(Br)c3)n3nc(N)nc3N2)cc1 (centres undefined)	3.8%
O=C(CN1CCC(O)(c2ccc3c(c2)OCO3)CC1)N1CCOCC1	9.5%
COc1cc(/C=N/Nc2ccc(Cl)c(C(=O)O)c2)ccc1OCC(=O)N1C(C)CCCC1C (centres undefined)	-1.3%
COc1ccccc1N1CCN(c2cc(C)nc3c(-c4ccc(Cl)cc4)c(C)nn23)CC1	2.4%
CCn1cc(C(=O)NCc2ccccc2F)c(=O)c2ccc(C)nc21	-16.7%
COC(=O)[C@@H](NC(=O)c1ccccc1OC1CCN(S(C)(=O)=O)CC1)C(C)C	-12.4%
Cc1cc(NS(=O)(=O)c2ccc(NC(=O)/C=C/c3c(F)cccc3Cl)cc2)nc(C)n1	12.3%
O=C(CCS(=O)(=O)c1ccc(Cl)cc1)Nc1nc(-c2cccnc2)cs1	-20.6%
COc1ccccc1CNC(=O)c1ccc2c(c1)CCN2S(=O)(=O)c1ccccc1	3.1%
CC1COC(Cn2c3ccccc3c3ccccc32)O1 (centres undefined)	-5.3%
C/C(=N\NC(=O)COc1ccc(C)cc1Br)c1cc([N+](=O)[O-])cs1	4.2%
CCc1ccc(C(=O)COC(=O)C(NC(=O)C2CCC(C)CC2)C(C)C)cc1 (centres undefined)	-7.9%
Cc1ccc(CSCCNC(=O)/C=C/c2ccccc2Cl)cc1	3.4%
CCOC(=O)C1=C(C)NC(=O)CC1c1ccccc1OC (centres undefined)	-5.3%
Cc1cc(C)cc(C(=O)NCC(=O)OCc2nc(N)nc(Nc3ccccc3C)n2)c1	1.6%
O=C(NCCc1cccc(F)c1)C1CCN(S(=O)(=O)c2ccc(F)cc2)CC1	-1.6%
Cc1ccc2nc(-c3cccs3)c(Nc3ccccc3)n2c1	8.1%
O=[N+]([O-])c1ccc(N2CCCCC2)s1	-16.8%
COC1=C(C(=O)c2ccccc2)C(=O)C2(CC=C(C)C)C[C@H](C(=O)OCC(F)(F)F)C(C)(C)[C@@]1(CC=C(C)C)C2=O (tested in a mixture with another compound)	-1.2%
COc1ccc(C(=O)NC2CCCCC2)cc1S(=O)(=O)N1CCOCC1	-8.5%
O=C(Nc1ccc(NS(=O)(=O)c2ccccc2)cc1)c1cccnc1	-7.4%
Cc1csc(NC(=O)CSc2nnc(NC(=O)NC(C)(C)C)s2)n1	-11.0%
CC(=O)Nc1ccc(N(C(=O)CNC(=O)c2ccco2)C(C(=O)NCC2CCCO2)c2ccccc2)cc1 (centres undefined)	-7.3%
O=C(NC1CCCCC1)C1CCC(CNS(=O)(=O)c2ccccc2)CC1 (centres undefined)	-3.8%
CC(C)C(=O)c1c(C(C)C)nn2ccccc12	7.3%&3.2%
COc1cccc(-c2nc(CS(=O)(=O)CC(=O)N3CCN(C)CC3)c(C)o2)c1	-23.5%
COc1ccccc1OCCCn1c(C2CC(=O)N(c3ccc(F)cc3)C2)nc2ccccc21 (centres undefined)	13.8%
COc1ncc2ncc(=O)n(C)c2n1	-5.6%
Cc1ccc(N=C2S/C(=C/c3cccc(OCC(=O)O)c3)C(=O)N2C)cc1C	?
Cc1ccc(OCCOCCOc2ccc(Br)cc2/C=N\NC(=O)c2ccncc2)cc1	-6.6%
CS(=O)(=O)N1CCC(C(=O)Nc2ccc3c(c2)OCCO3)CC1	-1.7%
Cc1ccc(NC(=O)C(=O)NCCOc2ccccc2Cl)cc1	1.1%
O=C(CSCC(=O)N1CCCCC1)OCC(=O)c1c[nH]c2ccccc12	3.2%
CC(C)Cc1c(O)nc(SCC(=O)Nc2ccc3c(c2)CCC3)[nH]c1=O	-7.4%
COc1ccccc1NC(=S)N(CCCN1CCOCC1)Cc1cn(C)c2ccccc12	-14.1%
O=C(C1CCN(Cc2cccs2)CC1)N1CCN(Cc2ccc3c(c2)OCO3)CC1	9.3%
CCc1c(O)nc(SCC(=O)N2CCCCC2)n(-c2ccccc2C)c1=O	2.4%
COc1ccccc1CC(=O)N1CCN(c2ccc([N+](=O)[O-])cc2)CC1	-5.2%
CCCc1nnc(NC(=O)Nc2ccccc2OC)s1	-6.4%
COc1ccc(N2CCN(CCNC(=O)Nc3ccc(C)c(Cl)c3)CC2)cc1	-9.6%
N#CCCSCc1ccc2oc(C(=O)O)cc2c1	-7.4%
C#CCN1C=CC(=O)[C@@H](OC(=O)Nc2ccc(C)cc2)[C@H]1c1ccccc1Br	-12.5%
COc1cccc(N2C(=O)C(CC(=O)Nc3cccc(F)c3)N(C3CCCC3)C2=O)c1 (centres undefined)	-4.4%
CCCN(Cc1ccco1)S(=O)(=O)c1ccc(OC)c(OC)c1	-7.7%
S=c1[nH]nc(-c2ccc(Cl)cc2)n1CCCN1CCOCC1	-9.8%
O=C(Nc1ccc(N2CCCC2)cc1)c1ccc([N+](=O)[O-])cc1Cl	-6.4%

Following part
canonical_smiles	VDR inh
COc1ccc(OC)c(NC(=O)C2CC(=O)N(CCc3ccccc3)C2)c1 (centres undefined)	-11.5%
COc1ccc(NC(=O)c2ccccc2OCc2ccc(F)cc2)c(OC)c1	14.1%
COC(=O)c1ccccc1NC(=O)C1=CC(c2cccs2)=NS(=O)(=O)N1C	-15.8%&6.9%
Cc1cccc(CC(=O)N2CCOCC2)c1	-12.8%
O=C(/C=C/c1ccccc1[N+](=O)[O-])NCCN1C(=O)S/C(=C\c2ccc(F)cc2)C1=O	-1.4%
CCN(CC)CCn1c2c(c(SCC(=O)Nc3ccc(C(C)C)cc3)nc1=O)CCCC2	-8.0%
CCCc1[nH]nc2c1C1(C(=O)N(C(C)C)c3ccccc31)C(C#N)=C(N)O2 (centres undefined)	-6.4%
COCc1c(C(=O)N/N=C(\C)c2ccncc2)nnn1-c1nonc1N	7.6%
COCC(=O)N1C[C@H]2CON(C)[C@H]2C[C@H]1c1cccc(-c2ccc(C#N)cc2)c1	4.2%
CCOC(=O)c1ccc(NC(=O)c2ccc3c(c2)c(C)c(C)n3Cc2ccc(F)cc2)cc1	20.5%
CC1Cc2cc(S(=O)(=O)NCCc3ccc(Cl)cc3)ccc2N1C(=O)C1CCC1 (centres undefined)	12.1%
COCCn1c(SCc2nnc(-c3ccccc3)o2)nc2sc3c(c2c1=O)CCC3	-8.6%
CCC(=O)c1ccc(N2CCN(C(=O)c3cc([N+](=O)[O-])ccc3F)CC2)c(F)c1	-21.3%
CCOC(=O)C(C)Oc1c(C(=O)OC)sc2ncccc12 (centres undefined)	5.7%
CCN(C(=O)CSc1nc2ccccc2n1Cc1ccc(F)cc1Cl)c1ccccc1	-2.0%
COC(C/C=C\[C@H](O)[C@@H](C)OCc1ccccc1)OC	-5.5%
S=c1[nH]nc(C(c2ccccc2)C2CCCCC2)o1 (centres undefined)	-20.2%
CS(=O)(=O)c1ccc(C(=O)OCC(=O)NC2CCS(=O)(=O)C2)cc1[N+](=O)[O-] (centres undefined)	-2.9%
C/C(=C\[C@@H](NP(=O)(c1ccccc1)c1ccccc1)c1ccccc1)CO[Si](c1ccccc1)(c1ccccc1)C(C)(C)C	-22.8%
Cc1ccc(C(=O)NCCCNC(=O)COc2ccc(C)c(C)c2)cn1	-6.1%
O=C1CC(c2ccco2)CC(O)=C1C=Nc1ccccc1-c1ccccc1 (centres undefined)	12.4%
COc1cccc(NCc2cc(=O)oc3cc(C)c(O)cc23)c1	-3.4%
Cc1ccc(NC(=O)CCCc2nc3ccccc3s2)c(O)c1	1.8%
Cc1ccc(CNC(C)(C)CO)cc1	6.4%
CC(=O)c1ccc(NC(=S)Nc2cccc3cnccc23)cc1	?
COc1ccc(Br)cc1-c1nc(CCl)cs1	-15.0%
CC1(CCc2ccccc2)NC(=O)N(CC(=O)O)C1=O (centres undefined)	?
Cc1c(NC(=O)c2cccs2)cccc1C(=O)O	2.6%
O=C(Cn1c2ccccc2c(=O)c2ccccc21)N/N=C/c1ccc(N2CCCC2)c([N+](=O)[O-])c1	0.4%
CN(C)C(=O)CCSC(SCCC(=O)O)c1cccc(/C=C/c2ccc3ccc(Cl)cc3n2)c1 (centres undefined)	35.5µM*
O=C(O)CCCN1C(=O)/C(=C\c2ccco2)SC1=S	-9.1%
Cc1ccc(C(=O)c2ccc(CC(=O)O)n2C)cc1	-9.5%&-14.1%&3.1%
COc1cccc2c(=O)c(C(=O)O)c[nH]c12	-11.1%
CC1(C)CC2(CC(c3ccccc3)c3ccc(O)cc3O2)NC(=S)N1 (centres undefined)	-16.2%
Cc1cc(C)cc(NC(=O)C(=O)NCCc2c[nH]c3ccccc23)c1	-2.9%
Cc1ccc(C)c(NC(=O)CN(C)C(=O)c2sccc2C)c1	-7.5%

Some of these compounds in order of their number in VDR inh, highest first.
molecule | VDR inh
Cc1ccc(CNC(C)(C)CO)cc1 | 6.4%
O=C(Cn1c2ccccc2c(=O)c2ccccc21)N/N=C/c1ccc(N2CCCC2)c([N+](=O)[O-])c1 | 0.4%
COc1ccc(Br)cc1-c1nc(CCl)cs1 | -15.0%
CC1(C)CC2(CC(c3ccccc3)c3ccc(O)cc3O2)NC(=S)N1 (centres undefined) | -16.2%

These rows are one share of the data; rates above refer to the full screens.
